ALR H2O2 inh = inhibitors of human sulfhydryl oxidase ALR; purified ALR, DTT oxidation, H2O2 HRP-luminol luminescence; inhibition, % (concentration not given with the values); 290,000 compounds, 3.8% hits;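 active means mean and each replicate at 75% or more; inconclusive means only one of the two met; inactive means neither met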;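 further: stock transfer was 7.5 nL into about 7.5 µL; 0% = neutral wells and 100% = wells with inactivated enzyme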
Target sequence (P55789 whole entry, looked up): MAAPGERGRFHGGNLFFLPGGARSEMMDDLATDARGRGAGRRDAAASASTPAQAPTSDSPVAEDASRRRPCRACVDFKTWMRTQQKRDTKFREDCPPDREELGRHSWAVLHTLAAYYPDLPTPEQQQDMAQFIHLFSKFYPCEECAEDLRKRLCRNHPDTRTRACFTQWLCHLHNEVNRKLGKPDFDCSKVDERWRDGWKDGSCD
HNF4A DNA FP = change in binding of human HNF4 alpha to DNA; HNF4a-FITC DNA binding, fluorescence polarization, 1 h; P41235; activity change, % at 10 µM; 360,000 compounds, 0.3% hits; in the data active means activity change above about 30%, passing the limit was not always enough;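 further: controls were the assay level and a saturating level of protein; the project sought stronger binding though the title names inhibitors; some compounds called inactive have numbers as strong as hits; positive values seem to mean higher polarization but the record does not say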
AF4-AF9 inh = inhibitors of human MLL-AF4/AF9 interaction; AlphaScreen, biotin-AF4 peptide binding to FLAG-AF9; inhibition, % at 10 µM; 350,000 compounds, 0.47% hits; AID 651704;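 active means every replicate reaching a set inhibition limit, whatever the replicate mean, cut at about 25% in these data; inconclusive means mean inhibition reaches that limit but some replicates miss it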;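 further: 0% = plate neutral control median and 100% = total signal loss; the record names both 10 and 1 µM as test concentration; the first replicate is given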
Target sequence (P42568 whole entry, looked up): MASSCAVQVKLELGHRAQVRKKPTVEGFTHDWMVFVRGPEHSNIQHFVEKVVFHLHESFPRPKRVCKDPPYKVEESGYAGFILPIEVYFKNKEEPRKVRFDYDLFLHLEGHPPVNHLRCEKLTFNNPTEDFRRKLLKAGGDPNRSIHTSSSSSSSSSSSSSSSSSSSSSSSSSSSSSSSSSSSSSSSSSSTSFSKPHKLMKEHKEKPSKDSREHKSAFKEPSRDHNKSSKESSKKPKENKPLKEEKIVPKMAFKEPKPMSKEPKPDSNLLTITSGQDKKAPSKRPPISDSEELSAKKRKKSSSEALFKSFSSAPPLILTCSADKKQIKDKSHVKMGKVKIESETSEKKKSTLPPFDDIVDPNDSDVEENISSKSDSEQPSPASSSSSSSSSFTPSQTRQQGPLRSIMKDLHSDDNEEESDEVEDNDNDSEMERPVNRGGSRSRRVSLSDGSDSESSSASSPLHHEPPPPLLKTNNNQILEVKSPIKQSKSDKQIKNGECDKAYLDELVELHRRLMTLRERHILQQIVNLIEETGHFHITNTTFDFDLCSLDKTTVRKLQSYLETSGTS
FGF22 binding = shifts melting point of recombinant human FGF22. recombinant FGF22 thermal shift, SYPRO orange fluorescence; percent of sucrose octasulfate shift, DMSO zero. Q9HCT0. calls only at 9.99 µM. AID 651658. 340,000 compounds, 1.5% hits;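 active means melting point raised past a set limit in the mean and every replicate; inconclusive means no clear call; three in four hits are not shown here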
Target sequence (Q9HCT0 whole entry, looked up): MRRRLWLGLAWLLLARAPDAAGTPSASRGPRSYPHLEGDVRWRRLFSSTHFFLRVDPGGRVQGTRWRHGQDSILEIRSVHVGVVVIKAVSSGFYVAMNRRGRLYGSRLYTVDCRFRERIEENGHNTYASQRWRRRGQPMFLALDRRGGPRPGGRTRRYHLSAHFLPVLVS
rRNA inh HTS = inhibits bacterial ribosomal RNA function over humanized ribosomes | E. coli WT GFP vs humanized-ribosome RFP mutants, fluorescence, 24 h; active compounds read low; DMSO median 0, no signal -100 | GFP signal change (wild-type ribosome), % (no concentration beside the values) | 350,000 compounds, 1.6% hits | AID 720706;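 active means significant combined selectivity score with lowered wild-type GFP, culture density cut under 30%, mutant RFP and density less affected; inactive means any of these conditions unmet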; further: one replicate is shown; some compounds called inactive have numbers as strong as hits
Vif TR-FRET = inhibitors of Vif binding to APOBEC3G peptide, primary screen, biochemical, TR-FRET, GST-Vif 1-94, biotin-A3G peptide, dose response retest (AID 1117319). TR-FRET GST-Vif / biotin-A3G peptide binding; higher % means a stronger effect; test concentration not given here; strong numbers were not always called active. inhibition, %; hits with a dose series show IC50 in µM. 260,000 compounds, 0.57% hits;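 active means above the screen mean plus three standard deviations and confirmed in dose response; inconclusive means results disagree or hit not tested in dose response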;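 further: Vif residues 1-94 fused to GST binding biotinylated APOBEC3G peptide 110-148; 0% = full assay without inhibitor and 100% = GST in place of GST-Vif; retest series ran down from 100 µM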
Ecoli growth = inhibitors of Escherichia coli growth; OD600, 23 h; active compounds read low; OD600 absorbance (concentration not given with the values); 330,000 compounds, 0.21% hits; AID 1053175;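 active means OD600 absorbance below the run mean of sample wells minus 3.6 SD, in any replicate, cut at about 0.56 in these data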;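 further: stock transfer was 300 nL into about 60 µL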
rRNA inh HTS OD600 = recorded beside rRNA inh HTS, whose call it bears; OD600 change, %; measured here: OD600 growth;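 optical density of the mix in the first replicate; 0 = DMSO median and -100 = no signal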
rRNA inh HTS RFP = also measured in rRNA inh HTS; calls as there; RFP signal change, %; measured here: RFP humanized mutant strains;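 first replicate; 0 = DMSO median and -100 = no signal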
The depositor's hits bear a star; i = inactive; ? = inconclusive; / = no result given. Some of the compounds tested. The share of hits here may be higher or lower than overall.

Compound | ALR H2O2 inh | HNF4A DNA FP | AF4-AF9 inh | FGF22 binding | rRNA inh HTS | rRNA inh HTS OD600 | rRNA inh HTS RFP | Vif TR-FRET | Ecoli growth
C/C=C/c1cnc2c(c1)C(=O)N([C@H](C)CO)C[C@@H](C)[C@H](CN(C)C(=O)NCCC)O2 | / | / | -0.5 | i | 6 | 18 | -1.4 | / | /
CCOP(=O)(OCC)C(Nc1ccccc1)c1ccccc1C(F)(F)F (centres undefined) | 13 | 1.1 | / | i | -27 | -29 | 13 | -11% | 0.69
COc1ccc(C(CNC(=O)c2cccc(S(=O)(=O)NCc3ccccc3)c2)N(C)C)cc1 (centres undefined) | -2 | -3.4 | 9.6 | i | 4 | -2 | -0.6 | / | 0.68
O=C(CSc1nnc(-c2ccc(Cl)cc2)o1)N1CCOCC1 | / | 3.9 | 0.8 | i | -4 | 2 | -4.4 | / | 0.7
Cc1cccc(N=Cc2c(O)cc(C)oc2=O)c1 | -5 | 0.3 | -0.9 | i | 10 | 5 | 2.9 | 4% | 0.71
CCOC(=O)C1CCNC(=O)C1=O (centres undefined) | / | -2.0 | 2.5 | i | 9 | 10 | 3.4 | / | /
CCc1nnc(NC(=O)CSc2nnc(-c3ccoc3C)n2-c2ccccc2)s1 | -5 | -0.8 | / | / | / | / | / | ? | 0.69
CC/C(=N\NC(=O)c1c(C)nc2ccccn12)c1ccccc1 | 5 | -1.5 | -2.0 | i | 1 | -5 | -0.2 | -8% | /
CC(C)Cc1cc(CN2CCC(CO)(Cc3cccc(C(F)(F)F)c3)CC2)[nH]n1 | 1 | 0.4 | 3.9 | i | -27 | -42 | 8.7 | 5% | 0.66
O=S1(=O)CCN(C2CCCCCCCCCCC2)CC1 | / | 0.7 | 0.2 | i | -33 | -46 | -14 | -2% | /
Cc1nnsc1-c1c(C(=O)N2CCOCC2)c(C)nn1-c1ccccc1 | / | 5.0 | 0.2 | i | -3 | 4 | -4.1 | 2% | 0.69
O=C(O)CC1(CC(=O)Nc2ccc3ccccc3n2)CCCCC1 | 0 | 1.7 | -0.2 | i | -16 | -20 | -1.8 | -2% | 0.66
Cn1cnc(S(=O)(=O)N[C@H]2CC[C@@H](CC(=O)N3CCN(c4ccccc4)CC3)O[C@@H]2CO)c1 | / | / | -0.6 | i | -1 | -6 | -1.8 | / | /
O=[N+]([O-])c1cccnc1NCCNc1ncc(C(F)(F)F)cc1Cl | -11 | -2.3 | / | / | / | / | / | 5% | 0.7
C[C@H]1CN([C@@H](C)CO)C(=O)c2cccc(NC(=O)C3CCCCC3)c2O[C@H]1CN(C)CC1CCCCC1 | / | / | -2.8 | i | 3 | 14 | -3.6 | / | /
CC1CCN(C(=O)c2nc[nH]c2C(=O)O[C@H](C)c2ccccc2)CC1 | -3 | 0.3 | -3.9 | i | -1 | -9 | 7.0 | / | /
COc1ccccc1-c1cn[nH]c1-c1ccc(OCC(=O)NN)cc1O | 95* | 1.2 | 6.6 | i | 7 | 11 | 1.0 | -9% | 0.7
Cn1c(=O)c2[nH]c(N=Nc3ccc(N)cc3N)nc2n(C)c1=O | 86* | 2.0 | 3.6 | i | 17 | 0 | 3.6 | ? | 0.69
COc1ccc(S(=O)(=O)Nc2ccc3c(c2)C(=O)N([C@H](C)CO)C[C@H](C)[C@H](CN(C)C(=O)NC(C)C)OCCCC[C@H](C)O3)cc1 | / | / | -6.4 | i | -5 | -5 | 2.3 | / | /
CC(SC1=NCCS1)C(=O)Nc1nnc(-c2ccc(Cl)cc2)s1 (centres undefined) | 32 | -1.7 | -2.9 | i | 2 | -43 | 11 | 76% | 0.76
COc1ccc(C(=O)OCC(=O)NC2CCCCCCC2)cc1OC | -6 | -3.6 | 0.6 | i | -13 | -15 | -1.6 | / | 0.69
COc1ccc(CCN2C(=O)CC(N3CCN(S(=O)(=O)c4ccccc4)CC3)C2=O)cc1OC (centres undefined) | 1 | 1.1 | -1.7 | i | 2 | 4 | -5.9 | 11% | 0.66
Cc1ccc(S(=O)(=O)Nc2cccc3c2O[C@H](CN(C)CC2CCCCC2)[C@@H](C)CN([C@H](C)CO)C3=O)cc1 | / | / | 0.9 | i | 2 | 6 | 0.6 | / | /
N#C/C(=C\c1ccccc1[N+](=O)[O-])C(=O)NC1CCCCC1 | 19 | -5.0 | 0.5 | i | -4 | -9 | 5.0 | -3% | 0.7
CC(C)c1[nH]nc2c1C(c1ccc(F)cc1)N(Cc1ccccc1)C2=O (centres undefined) | / | / | 3.4 | / | -54 | -79 | -16 | / | /
Cc1nc(NC(=O)c2ccc(-c3cc4ccccc4oc3=O)cc2)ccc1Br | -18 | -0.5 | / | / | / | / | / | 26% | 0.68
CCn1c(S(=O)(=O)O)nc2ccccc21 | -3 | -1.7 | -20 | i | 1 | 0 | 1.0 | / | 0.7
Cc1noc(C)c1NC(=O)N(C)C[C@@H]1OCCCC[C@@H](C)Oc2ccc(NC(=O)C3CCCCC3)cc2C(=O)N([C@@H](C)CO)C[C@@H]1C | / | / | -4.9 | i | 2 | 6 | -0.2 | / | /
Cc1cc2cc(CN(Cc3cccs3)S(=O)(=O)c3ccc4c(c3)OCCO4)c(=O)[nH]c2cc1C | -1 | 1.7 | 1.5 | i | / | / | / | 0% | /
CCc1nnc(NC(=O)CSc2nc3c(cc2C#N)CCC3)s1 | -25 | -3.6 | / | / | / | / | / | ? | 0.67
C/C=C/c1ccc2c(c1)O[C@H](CN(C)Cc1cccc(F)c1)[C@H](C)CN([C@H](C)CO)S2(=O)=O | / | / | 17 | i | -33 | -62 | 7.4 | / | /
COc1cc2oc(=O)cc(CN3CCOCC3)c2cc1Cl | / | 0.7 | -6.1 | i | -1 | 4 | -3.3 | / | /
CC(C)(C)OC(=O)N1CCC(C(=O)Nc2ccc(C(=O)N3CCCCC3)cc2)CC1 | / | -0.6 | -1.3 | / | 6 | 19 | 1.9 | / | /
O=C(Cn1cncn1)N/N=C/c1c2ccccc2cc2ccccc12 | -1 | 0.8 | / | / | / | / | / | ? | /
CC1CCCCC12NC(=O)N(CC(=O)Nc1ccc3c(c1)OCCCO3)C2=O (centres undefined) | -2 | -3.6 | 1.2 | i | / | / | / | -7% | 0.7
O=C1CCCC2=C1C(c1ccc(O)c(O)c1)c1c(ccc3ncccc13)N2 (centres undefined) | 100* | -1.5 | 4.0 | i | 6 | 0 | 0.6 | ? | /
COc1ccc(-c2cn(CC[C@@H]3CC[C@H](NC(=O)CCN4CCCCC4)[C@@H](CO)O3)nn2)cc1 | / | / | 5.9 | i | 2 | 2 | -3.4 | / | /
CCOC(=O)c1ccc(NC(=O)CSc2nc(N3CCOCC3)nc(N3CCOCC3)n2)cc1 | -2 | -3.0 | -2.1 | i | 12 | 15 | 0.3 | / | 0.65
CCc1ccccc1NC(=O)c1ccc(-n2c(C)ccc2C)cc1 | -9 | 1.9 | / | / | / | / | / | 2% | 0.71
Cc1ccc(-n2cccn2)c(CN2CCCC(C(=O)c3sccc3C)C2)c1 (centres undefined) | / | -0.1 | 6.0 | i | -23 | -25 | 0.0 | -4% | 0.71
COc1ccc(NC(=O)Cc2nnc(SCC(=O)Nc3ccccc3)n2C)cc1 | -1 | -1.8 | -7.4 | / | 5 | 1 | -1.6 | -1% | 0.67
Cc1ccc(C)c(NC(=S)NNC(=S)Nc2ccc(C(C)C)cc2)c1 | -7 | -1.6 | 5.3 | i | -27 | -48 | 16 | -4% | 0.67
CC(C)NC(=O)C1(C)CCN1C(=O)C/C=C/c1ccccc1 (centres undefined) | / | -4.9 | -3.2 | i | 7 | 13 | -1.1 | / | /
COc1ccc(NC(=S)Nc2ccc(S(N)(=O)=O)cc2)c(OC)c1 | 5 | 2.2 | 1.6 | i | 4 | 4 | 2.6 | 12% | 0.6
COc1ccccc1Oc1cc(C#N)c(C#N)cc1-n1nnc2ccccc21 | -6 | 5.4 | / | / | / | / | / | 3% | 0.71
C=CCn1c(SCC(=O)c2ccc(O)c(O)c2)nnc1-c1ccc(C)cc1 | 65 | -4.8 | 11 | i | -1 | 6 | -11 | / | 0.7
O=C(CCCN1CCC(C(=O)c2ccc(F)cc2)CC1)c1ccc(F)cc1 | -3 | -1.8 | -1.2 | i | 3 | 3 | -2.9 | / | 0.68
COc1ccc(NC(=O)N(C)C[C@H]2Oc3ccc(NC(=O)Nc4c(C)noc4C)cc3CC(=O)N([C@H](C)CO)C[C@@H]2C)cc1 | / | / | -4.4 | i | -2 | 9 | 0.5 | / | /
COc1ccccc1-c1noc(-c2ccccc2C(=O)NCc2ccco2)n1 | / | -2.9 | -0.9 | i | -11 | -6 | 2.2 | / | 0.72
O=C(C1CC1)N1[C@@H](CO)[C@@H](c2ccccc2)C12CN(Cc1cccc(Cl)c1)C2 | / | / | 0.4 | i | -10 | -4 | 2.5 | / | /
COc1cc(N)n(S(=O)(=O)c2ccc(C)cc2)n1 | -3 | -2.0 | -0.1 | i | 5 | 9 | 11 | 10% | 0.7
CC(c1cccs1)N(Cc1ccco1)C(=O)Nc1ccc(Cl)c(Cl)c1 (centres undefined) | -2 | 7.3 | / | / | / | / | / | -4% | 0.78
COc1ccc(-c2ccc(C(=O)NCC(C)C)c3occc23)c(C)c1 | / | 0.6 | -4.0 | i | -30 | -59 | -8.1 | / | /

Reformatted: results already given.
| ALR H2O2 inh | HNF4A DNA FP | AF4-AF9 inh | FGF22 binding | rRNA inh HTS | rRNA inh HTS OD600 | rRNA inh HTS RFP | Vif TR-FRET | Ecoli growth | Structure |
| --- | --- | --- | --- | --- | --- | --- | --- | --- | --- |
| -7 | -1.6 | 5.3 | i | -27 | -48 | 16 | -4% | 0.67 | Cc1ccc(C)c(NC(=S)NNC(=S)Nc2ccc(C(C)C)cc2)c1 |
| / | -4.9 | -3.2 | i | 7 | 13 | -1.1 | / | / | CC(C)NC(=O)C1(C)CCN1C(=O)C/C=C/c1ccccc1 (centres undefined) |
| 5 | 2.2 | 1.6 | i | 4 | 4 | 2.6 | 12% | 0.6 | COc1ccc(NC(=S)Nc2ccc(S(N)(=O)=O)cc2)c(OC)c1 |
| -6 | 5.4 | / | / | / | / | / | 3% | 0.71 | COc1ccccc1Oc1cc(C#N)c(C#N)cc1-n1nnc2ccccc21 |
| 65 | -4.8 | 11 | i | -1 | 6 | -11 | / | 0.7 | C=CCn1c(SCC(=O)c2ccc(O)c(O)c2)nnc1-c1ccc(C)cc1 |
| -3 | -1.8 | -1.2 | i | 3 | 3 | -2.9 | / | 0.68 | O=C(CCCN1CCC(C(=O)c2ccc(F)cc2)CC1)c1ccc(F)cc1 |
| / | / | -4.4 | i | -2 | 9 | 0.5 | / | / | COc1ccc(NC(=O)N(C)C[C@H]2Oc3ccc(NC(=O)Nc4c(C)noc4C)cc3CC(=O)N([C@H](C)CO)C[C@@H]2C)cc1 |
| / | -2.9 | -0.9 | i | -11 | -6 | 2.2 | / | 0.72 | COc1ccccc1-c1noc(-c2ccccc2C(=O)NCc2ccco2)n1 |
| / | / | 0.4 | i | -10 | -4 | 2.5 | / | / | O=C(C1CC1)N1[C@@H](CO)[C@@H](c2ccccc2)C12CN(Cc1cccc(Cl)c1)C2 |
